Bead autofluor: counter-screen for toxin protease inhibitors: compound fluorescence. compound autofluorescence counterscreen, microsphere flow cytometry; hits give high values. AID 624483. fluorescence intensity (test concentration not listed). hit rate 3.1% among 360,000;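 active = at least 3 SD above the mean of all compounds, about 16000 in these data; inconclusive = too few beads counted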;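 also: 100 nL of 1 mM stock went into each well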
Sa ugtP lethal: kills S. aureus RN4220 lacking UgtP. S. aureus RN4220 ugtP deletion, OD600 growth, 16 h; some inactives read as strong as hits. growth inhibition, % (concentration not given with the values). hit rate 0.54% among 330,000. AID 1259309;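 active = z-score under -3 and OD600 up to 0.15 on both plates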;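 also: plate controls were untreated wells for no effect and antibiotic for full effect; wells of about 80 µL received 100 nL stock; the first replicate is given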
Sa RN4220 lethal: kills Staphylococcus aureus RN4220. hit rate 0.33% among 330,000. inhibition, % (test concentration not listed). S. aureus RN4220 growth, OD600, 16 h;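 active = z-score of -3 or lower and OD600 up to 0.18 on both plates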;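 also: plate controls were untreated cells for no effect and reference antibiotic for full effect; stock transfer was 100 nL into about 80 µL; one replicate is shown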
Mtb hypoxia inh: inhibitors of hypoxia-regulated fluorescent reporter in Mycobacterium tuberculosis; M. tuberculosis hypoxia-regulated fluorescent reporter, fluorescence; fluorescence inhibition, % (no concentration beside the values); hit rate 0.1% among 300,000; AID 1159583;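 active = 35 to 45% if threefold the growth effect, above 45% if 1.5-fold the growth effect; inactive = the rest, general growth blockers included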;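 also: wells of about 50 µL received 100 nL stock; 0% = vehicle wells and 100% = reference inhibitor wells; whole bacteria with a GFP reporter of the hypoxia response; strong numbers were not always called active; many hits fall short of the cut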
PrP UTR inh: inhibition of PrP 5' UTR reporter expression; AID 488862; hit rate 0.35% among 340,000; inhibition, % (concentration not given with the values); cell-based PrP 5' UTR mRNA reporter, plate reader;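 active = every replicate at 50% or more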;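 also: 0 = median of the neutral control wells; tested in H4 reporter cells; numbers are from one replicate; inactives centre near -14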
BJeLR viability: kills HRASV12-expressing BJeLR cells. BJeLR (HRASV12) viability, CellTiter-Glo ATP luminescence, 48 h; reference of the scale not given here. hit rate 0.17% among 300,000. AID 1554. inhibition, % (no concentration beside the values);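 active = replicate mean above 50%; inconclusive = above 50% but judged a plate artefact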;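 also: 50 nL library stock added to about 25 µL; numbers are from one replicate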
Mtb hypoxia inh growth: also measured in Mtb hypoxia inh; calls as there; growth inhibition, %; measured here: M. tuberculosis growth (absorbance);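 0% = vehicle and 100% = reference antibiotic; read after six days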
* hit, by the source's call; ? = inconclusive; · = no result given.

The line under a structure holds: Bead autofluor	Sa ugtP lethal	Sa RN4220 lethal	Mtb hypoxia inh	Mtb hypoxia inh growth	PrP UTR inh	BJeLR viability
Cc1ccc(C2=C(O)c3ccccc3C(=O)C2=O)cc1
→ 4102	-19	13	2	8	-6	-3
CC1=C(C(=O)Nc2ccc(C)cc2C)C(c2ccc(C)o2)NC(=O)N1 (configuration not stated)
→ 7849	7	3.3	2	0	-22	2
Cc1ccc(C2NC(C(=O)O)CS2)cc1 (configuration not stated)
→ ·	4	2.8	3	3	·	9
CC1=NC(C)(C)Cc2cc(C)c(C)cc21
→ 7532	0	1.9	17	9	-31	-2
Cc1cc(/C=C2\C(=O)NC(=O)N(c3ccc(Cl)cc3)C2=O)c(C)n1-c1cccc(C(=O)O)c1
→ 2873	6	2.9	-2	-3	-4	-4
O=C(OCc1c(F)cccc1Cl)c1cccc(S(=O)(=O)N2CCOCC2)c1
→ 4107	7	5.9	10	7	-15	·
COc1ccc(C2Nc3ccccc3C(=O)N2O)cc1OC (configuration not stated)
→ 2916	-6	-14	-4	-6	-13	4
CC(C)OC(=O)[C@H]1[C@H](c2ccc(Cl)cc2)[C@@](C#N)(C(N)=O)[C@@H]2C=CC(C(N)=O)=CN21
→ 3358	-3	8.7	-6	9	-23	-3
COc1ccccc1/C=N/NC(=O)C(=O)Nc1ccccc1OC(F)(F)C(F)F
→ 10915	·	·	·	·	-20	-5
CC(C)CCNC(=O)c1cc(S(=O)(=O)N2CCCCC2)ccc1N1CCOCC1
→ 3557	6	6.2	15	8	-19	-8
O=C(N/N=C/c1ccc[nH]1)c1cc(-c2cccs2)nc2ccccc12
→ 4223	·	·	·	·	-24	-17
CCCC(=O)Nc1cc(C(=O)O)ccc1S(=O)(=O)c1ccc(C)cc1
→ 2223	13	4.6	10	5	-22	-19
CCOC(=O)C1(CC2CCCCO2)CCN(Cc2ccc(OC)cc2F)CC1 (configuration not stated)
→ 4762	3	1.1	-14	-8	80*	8
O=c1oc2ccccc2c(N2CCCCC2)c1[N+](=O)[O-]
→ 2138	-1	0.5	5	2	-28	12
O=C(C1CC1)N1CCN(c2nc3ccccc3s2)CC1
→ 8781	-5	0.1	-1	-3	-109	3
COCCCNS(=O)(=O)c1ccc2c3c(cccc13)C(=O)S2
→ 2736	13	-8.1	21	9	-17	7
COc1cccc(N2CCN(C(=O)CNC(=O)c3sc4ccccc4c3Cl)CC2)c1
→ ·	-4	4.6	-10	-9	-6	9
Cc1ccc(C(=O)OCC(=O)NC(=O)Cc2ccccc2)c(O)c1
→ 6186	3	-1.2	7	2	-7	-2
CC(=NNC(=O)COc1ccc([N+](=O)[O-])cc1)C(C)(C)C
→ ·	2	1.5	3	2	·	·
Cc1cc(Br)cc(C)c1NC(=O)c1ccccc1[N+](=O)[O-]
→ 2049	6	9.4	0	1	-26	2
CC1=C(C(=O)N2CCOCC2)C(c2cc(C)cs2)NC(=O)N1 (configuration not stated)
→ 4642	9	0.0	·	·	-11	0
O=C(N(c1ccccc1)c1ccccc1)n1ccnc1
→ 21662*	-3	0.3	4	6	-33	-1
CCOC(=O)C1=C(c2ccccc2)N=C2SCC(=O)N2C1c1ccc(OCC)c(OCC)c1 (configuration not stated)
→ 3053	22	1.6	·	·	-7	7
C/C(=N/Nc1ccccc1C(=O)O)c1cccs1
→ 3245	·	·	·	·	-39	-1
Cc1ccc(C(=O)OCC(=O)c2cc(C)n(CC3CCCO3)c2C)cc1 (configuration not stated)
→ 4055	4	10	12	5	-29	-12
Cc1cc(NC(=O)C(C)Oc2ccc(Cl)cc2Cl)n(-c2ccccc2)n1 (configuration not stated)
→ ?	-14	8.6	1	7	-9	-3
CCCOc1ccc(N2CC(C(=O)Nc3ccccc3OC)CC2=O)cc1 (configuration not stated)
→ 5538	-1	6.8	·	·	2	-3
CCc1cc(C(=O)NCCN(C)C)cs1
→ 12698	5	1.7	3	6	-7	-4
CCCS(=O)(=O)N1CCCC(C(=O)NCC2CCCO2)C1 (configuration not stated)
→ 2580	8	4.1	·	·	-21	9
N#C/C(=N\Nc1ccc(S(=O)(=O)N2CCc3ccccc32)cc1)C(N)=S
→ 3735	·	·	·	·	-9	12
CCOC(=O)c1ccc(NC(=O)CSc2nnc(CNc3ccc(OC)cc3)n2C)cc1
→ 11395	12	3.4	7	1	-41	-7
CCNC(=O)C(=O)NCC(c1cccs1)S(=O)(=O)c1ccc(C)cc1 (configuration not stated)
→ 5230	11	5.9	3	-8	0	13
COc1ccc(-c2cc(C(=O)Nc3ccc(OC)c(OC)c3)no2)cc1
→ 3400	11	2.9	4	6	·	-3
COc1ccc(C)cc1S(=O)(=O)Nc1ccccc1
→ 7625	2	0.1	4	3	-16	-22
Cc1onc(-c2c(Cl)cccc2Cl)c1C(=O)N1CCCc2ccccc21
→ 12230	-8	17	-1	0	-14	9
CC[C@]12c3[nH]c4ccc(Cl)cc4c3CCN1C(=O)[C@@H](CC(=O)NCCCn1ccnc1)C[C@@H]2C(=O)N1CCN(C(=O)c2ccco2)CC1
→ 3816	0	-1.6	0	3	-9	·
CCOc1ccc2[nH]c3c(N4CCN(c5ccccn5)CC4)ncnc3c2c1
→ 18129*	-16	1.9	8	14	1	8
CN(c1ccc(OCC(=O)OCC(=O)NCc2ccco2)cc1)S(=O)(=O)c1ccc2ccccc2c1
→ 4472	3	-0.3	-2	17	-22	-1
CCCCCCC(=O)Nc1c(O)c2ccccc2[nH]c1=O
→ ?	-1	-2.9	5	1	-8	-7
Cc1ccc(C2(C(F)(F)F)NC(=O)N3CCN=C3S2)cc1 (configuration not stated)
→ 21208*	1	7.3	5	12	-11	-1
COc1ccc(NC(=O)NNS(=O)(=O)c2ccc(Br)cc2)cc1
→ 4691	10	4.5	10	0	-31	2
OCCn1ccc(-c2ccccc2OCc2ccc(F)cc2)n1
→ 3130	2	2.8	-6	-2	6	-15
COCCCNC(=O)c1ccc(CS(=O)(=O)c2cccc(C(F)(F)F)c2)o1
→ 4171	1	0.6	-8	9	-21	2
COc1cc(/C=C2\S/C(=N/S(=O)(=O)Cc3ccccc3)NC2=O)c([N+](=O)[O-])cc1OC
→ 3635	4	3.3	-1	-12	-20	5
O=C(NCC1CCCO1)/C(=C\c1cccc([N+](=O)[O-])c1)NC(=O)c1ccccc1 (configuration not stated)
→ 4379	0	1.0	10	4	-17	·
COc1ccc(C2=Nn3c(nnc3-c3ccccc3OC)SC2)cc1OCC1CC1
→ 3211	8	13	-1	-1	42	·
CN(CC(=O)N1CCc2[nH]c3ccc(F)cc3c2C1)CC1OCCO1
→ ·	4	-0.9	·	·	·	3
CC(=O)C1=C(C)N(Cc2ccccc2)C(=O)NC1c1cccc(C(F)(F)F)c1 (configuration not stated)
→ ·	4	7.6	9	5	·	·
COc1cc(NC(=O)c2cccs2)cc(OC)c1
→ 2521	-9	-15	21	-19	-54	-1
Cn1cccc1C(=O)c1cccc([N+](=O)[O-])c1
→ 3355	9	3.3	5	10	-6	-9

Fetched by compound from the list above:
The line under a structure holds: Bead autofluor	Sa ugtP lethal	Sa RN4220 lethal	Mtb hypoxia inh	Mtb hypoxia inh growth	PrP UTR inh	BJeLR viability
O=C(NCC1CCCO1)/C(=C\c1cccc([N+](=O)[O-])c1)NC(=O)c1ccccc1 (configuration not stated)
→ 4379	0	1.0	10	4	-17	·
Cn1cccc1C(=O)c1cccc([N+](=O)[O-])c1
→ 3355	9	3.3	5	10	-6	-9
COCCCNC(=O)c1ccc(CS(=O)(=O)c2cccc(C(F)(F)F)c2)o1
→ 4171	1	0.6	-8	9	-21	2
COc1cc(/C=C2\S/C(=N/S(=O)(=O)Cc3ccccc3)NC2=O)c([N+](=O)[O-])cc1OC
→ 3635	4	3.3	-1	-12	-20	5
COc1ccc(C2=Nn3c(nnc3-c3ccccc3OC)SC2)cc1OCC1CC1
→ 3211	8	13	-1	-1	42	·

The results go on.
The line under a structure holds: Bead autofluor	Sa ugtP lethal	Sa RN4220 lethal	Mtb hypoxia inh	Mtb hypoxia inh growth	PrP UTR inh	BJeLR viability
O=C(O)c1ccccc1-c1ccccc1C(=O)Nc1ccccc1Br
→ 4101	7	1.6	·	·	-5	-1
O=C(OCC(=O)c1ccc([N+](=O)[O-])cc1)/C(=C/c1ccc(Cl)cc1)NC(=O)c1ccccc1
→ 2443	-1	3.9	17	4	-10	-4
COc1ccc(NC(=O)CSc2nc(NS(=O)(=O)c3ccc(C)cc3)cc(=O)[nH]2)cc1
→ 19058*	1	2.9	6	14	-28	7
O=C(Nc1cccc(F)c1)c1cccnc1N1CCOCC1
→ 8831	-6	-0.7	-15	11	-11	1
CC(C)OCC(O)CS(=O)Cc1ccccc1 (configuration not stated)
→ 10300	3	2.2	1	6	-29	5
O=C(Cc1ccccc1)N1CCN(C(=O)c2ccco2)CC1
→ 3035	-4	6.3	15	7	-13	1
Cc1cnc(C(=O)Nc2cccc(S(=O)(=O)N(C)C)c2)cn1
→ 2436	2	3.4	7	0	-6	10
COC(=O)CSc1nnc(-c2ccco2)o1
→ 12238	-4	2.5	-1	-9	-17	6
COCCCN(C(=O)CSCc1c(C)noc1C)c1c(N)n(Cc2ccccc2)c(=O)[nH]c1=O
→ ?	0	2.3	-1	-4	-5	2
CC(=NNC(=O)c1cccs1)c1ccncc1
→ ·	10	4.8	9	0	·	·
C=CCn1c(-c2ccc(Cl)cc2)cnc1SC(C)C(=O)NC(N)=O (configuration not stated)
→ 4614	12	-0.9	6	12	-14	10
Cn1c(-c2ccc(F)cc2)cc2onc(-c3c(F)cccc3Cl)c2c1=O
→ ·	-4	2.9	5	1	·	·
COc1ccc(CC(=O)N2CCN(S(=O)(=O)c3cccs3)CC2)cc1OC
→ 3491	4	-1.0	13	0	-11	1
O=C(CSc1nnc2ccc(-c3ccc(F)cc3)nn12)NCC1CCCO1 (configuration not stated)
→ 4461	8	3.2	2	-1	-12	3
OCCSc1nc(-c2ccccc2)nc2ccc(F)cc12
→ 2068	-10	7.2	15	11	-14	-1
O=C(NN=Cc1[nH]c2ccccc2c1Cl)c1cccc(Br)c1
→ ·	24	2.2	-3	1	·	·
O=S(=O)(c1cnc[nH]1)N1CCN(c2ccc(Cl)cc2)CC1
→ 5881	6	6.8	-3	-3	-19	11
CCC(C)(C)C1CCC2(CC1)NC(=O)N(CC(=O)Nc1nc(-c3ccc(C)cc3)cs1)C2=O (configuration not stated)
→ 4912	12	0.3	·	·	-9	-8
Cc1cc(SCc2c(F)cccc2Cl)nc(=O)[nH]1
→ 5542	8	2.8	11	2	-9	1
CC(=O)OC(C(=O)Nc1nccs1)c1ccccc1 (configuration not stated)
→ 3877	0	0.7	0	15	-8	-4
COc1cccc(NC(=O)C(=O)NN=Cc2ccc3c(c2)OCO3)c1
→ ·	0	-1.3	-2	-10	·	·
CCN(Cc1ccccc1)C(c1cc2cc(C)ccc2[nH]c1=O)c1nnnn1CCOC (configuration not stated)
→ 4288	-8	2.8	·	·	-21	-8
COc1ccc(NC(=O)COc2ccc(C=NO)cc2OC)cc1
→ ·	16	4.0	7	9	·	·
CC(C)C(=O)NNC(=O)CSc1nnc(-c2ccccc2)c(-c2ccccc2)n1
→ 3838	14	2.8	6	0	-15	-14
NC(=O)c1ccc(SCC(=O)OCC(=O)NCc2ccco2)c([N+](=O)[O-])c1
→ 6183	4	3.4	11	-1	-23	-4
NC1=NC2(CCCC2)n2c(nc3ccccc32)N1
→ 2408	8	0.4	6	-1	-20	-1
O=C(Cn1c(O)c(N=NC(=O)c2ccncc2)c2ccccc21)Nc1ccccc1
→ ·	0	-3.4	-12	-7	·	3
O=C(O)C1CCN(Cc2cnn(-c3ccccc3)c2-n2cccc2)CC1
→ 11092	3	7.3	10	14	28	-2
CN(C)c1nc(N)nc(N(c2ccccc2)c2ccccc2)n1
→ 4415	-10	9.2	5	2	1	5
Cc1ccc(NC(=O)NCCN2C(=O)C3C4C=CC(C4)C3C2=O)cc1 (configuration not stated)
→ 5104	4	0.3	·	·	-60	-6
Cc1ccccc1N1CC(c2nc3ccccc3[nH]2)CC1=O (configuration not stated)
→ 20021*	-4	4.6	3	14	-16	·
Cn1cc(S(=O)(=O)Nc2ccc(Br)cc2F)c(=O)n(C)c1=O
→ 3879	-4	4.2	-3	-3	-15	-3
